Screens deposited in PubChem BioAssay by ICCB-Longwood Screening Facility, Harvard Medical School.
Polio RdRp inh: poliovirus RNA polymerase inhibition | P03300 | poliovirus polymerase elongation, fluorescence polarization; active compounds read low | % elongation, % (compound at 16.7 µg/mL) | 0.66% of 150,000 active | AID 588519; in the data active means % elongation below about 90%; further: some results filed as inactive read as strong as hits
Target sequence (P03300 1749-2209 limits assumed): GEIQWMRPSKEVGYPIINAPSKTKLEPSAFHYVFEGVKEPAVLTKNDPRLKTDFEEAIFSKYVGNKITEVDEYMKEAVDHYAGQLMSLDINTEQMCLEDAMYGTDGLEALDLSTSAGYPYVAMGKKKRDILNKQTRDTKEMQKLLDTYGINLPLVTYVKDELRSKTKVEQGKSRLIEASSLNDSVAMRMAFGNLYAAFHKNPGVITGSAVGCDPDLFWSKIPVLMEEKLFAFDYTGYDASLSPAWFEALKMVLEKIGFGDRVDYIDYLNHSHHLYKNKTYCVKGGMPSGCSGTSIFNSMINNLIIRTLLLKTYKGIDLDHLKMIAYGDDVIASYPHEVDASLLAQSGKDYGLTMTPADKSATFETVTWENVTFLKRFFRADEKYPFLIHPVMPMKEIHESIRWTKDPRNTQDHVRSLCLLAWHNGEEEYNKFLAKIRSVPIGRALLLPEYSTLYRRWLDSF
Mtb MbtI inh: MbtI salicylate synthase inhibition; P9WFX0; 0.89% of 100,000 active; purified MbtI enzyme, fluorescence intensity read-out; inhibition, %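 (about 17 µg/mL by stock and volumes)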;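 active means above 50% in both replicates, above 80% if mildly self-fluorescent; inactive means the rest, strongly fluorescent compounds included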;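 further: 0% = mean of negative and 100% = mean of positive controls; one replicate is shown; some compounds called inactive have numbers as strong as hits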
Mtb MenB inh: Mtb MenB enzyme inhibition | P9WNP5 | MenB enzyme assay, absorbance read-out; some hits fall short of the stated cut | inhibition, %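 (about 12 µg/mL by stock and volumes)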 | 0.43% of 100,000 active;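 active means mean of two replicates above 30%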;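 further: 0% = no compound and 100% = wells with inactive enzyme; the first replicate is given; strong numbers were not always called active; inactives centre near -10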
Target sequence (P9WNP5 whole entry, looked up): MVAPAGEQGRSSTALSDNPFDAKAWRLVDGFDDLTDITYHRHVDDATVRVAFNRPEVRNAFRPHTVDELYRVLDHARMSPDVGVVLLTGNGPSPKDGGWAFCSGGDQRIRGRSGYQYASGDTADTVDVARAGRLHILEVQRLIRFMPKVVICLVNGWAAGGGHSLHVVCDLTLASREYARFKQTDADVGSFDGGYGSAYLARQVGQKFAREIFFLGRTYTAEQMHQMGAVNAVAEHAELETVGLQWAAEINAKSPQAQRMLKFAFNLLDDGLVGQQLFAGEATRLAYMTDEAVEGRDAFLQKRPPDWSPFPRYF
Polio RdRp inh intensity: second read-out of Polio RdRp inh, no call of its own (marks repeat the call); % elongation; measured here: total intensity read-out; formula for this scale not given here;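 total fluorescence in place of polarization; lower means less elongation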
The depositor's hits bear a star; x = not tested or not shown. Hits appear at their usual frequency; any-hit rate near 1.8%.

item	compound	Polio RdRp inh	Polio RdRp inh intensity	Mtb MbtI inh	Mtb MenB inh
1	COC(=O)c1cccc(COC(=O)CCc2nc3ccccc3[nH]c2=O)c1	100	104	18	15
2	COC(=O)c1nn(-c2ccccc2)c2oc(=O)cc(C)c12	102	108	-12	2
3	C(=N\n1c(-c2ccco2)csc1=NCCc1ccccc1)/c1ccco1	100	106	13	-112
4	Cc1sc2nc3c4ccccc4c(NCCO)nn3c(=O)c2c1C	101	105	-6	-15
5	CCCCC(=O)Nc1cc(OC)c(OC)cc1C(=O)O	102	103	26	8
6	CCOC(=O)c1cc(OC(=O)c2ccc(Cl)nc2)cc(C(=O)OCC)c1	106	113	-21	8
7	CN(C)S(=O)(=O)Nc1ccc(OCc2ccccc2)cc1	101	102	-8	-16
8	NC(=O)c1ccccc1CCc1ccccc1	105	102	-9	-23
9	O=C(Cc1cccc2ccccc12)Nc1ccc(-n2cnnn2)cc1	101	108	-5	-30
10	CCC(C(=O)N1CCCC1)n1c(C(=O)OC)cc2sccc21 (configuration not stated)	104	103	5	3
11	NC(N)=Nc1nc(-c2ccccc2)c2ccccc2n1	97	93	107	-11
12	Cc1cc(N2CCOCC2)nc([S+]2CCCC2)n1	100	103	3	5
13	COC(=O)c1ccccc1NC(=O)COC(=O)c1ccco1	103	105	1	-70
14	CCC12CN(S(=O)(=O)c3ccc(C)cc3)CC(CC)(CN(S(=O)(=O)c3ccc(C)cc3)C1)C2=O	99	101	-8	12
15	CCn1c(C(=O)O)c(CNC2CCC(C)CC2)c2ccccc21 (configuration not stated)	113	131	88	-7
16	CCC(C)NC(=O)CSc1nc2ccc(N3CCOCC3)cc2c(=O)n1Cc1ccc2c(c1)OCO2 (configuration not stated)	100	101	-24	9
17	CC(C)Cn1c(C(O)c2ccccc2)nc2ccccc21 (configuration not stated)	106	108	-9	-29
18	O=C(O)c1ccccc1SCC(=O)N1CCCC1	102	93	-1	x
19	Fc1ccc(CN2CCN(c3ncccn3)CC2)cc1F	100	100	-3	-28
20	OC1CCN(Cc2cccc(Br)c2)CC1	97	102	-3	14
21	Cc1noc(C)c1COc1ccc(CC(=O)NC2CCCCCC2)cc1	98	86	-14	-36
22	O=C1CN(C(=O)CCc2ccccc2)c2ccccc2N1	103	102	-3	-24
23	CN(C)c1cc[n+](CC(=O)N2CCCc3ccccc32)cc1	100	102	11	3
24	Cc1ccc(C(=O)OCc2c(C#N)oc3ccc(Br)cc23)cc1C	107	103	2	-2
25	CCOC(=O)C1CCCC1=O (configuration not stated)	102	106	-7	x
26	CC(C)(C)CC[n+]1ccc(/C=N/O)cc1	101	103	4	-1
27	CCN1C(=O)CC(C(=O)Nc2ccc(OC)cc2)SC1=Nc1ccccc1 (configuration not stated)	103	103	2	9
28	Cc1cc(N)n(-c2nc(C)nc3sc4c(c23)CCC(C)C4)n1 (configuration not stated)	100	110	-9	-9
29	CNCc1ccccc1Br	105	104	0	5
30	O=C(Nc1ccccc1)C1CC2CCCC(C1)C2=O (configuration not stated)	102	105	-6	x
31	Cn1nc(C(=O)NCCCN2CCN(CCCNC(=O)c3ccc(=O)n(C)n3)CC2)ccc1=O	107	107	103	-32
32	CC(C)CCn1c(SCc2ccc(F)cc2)nc2nccnc2c1=O	104	109	-17	-9
33	Cc1ccc(N=C2C(=O)Nc3ccccc32)cc1	103	102	6	-32
34	Cc1ccc2[nH]c(=O)c(C=NC(CO)(CO)CO)c(O)c2c1	100	108	x	-4
35	O=c1[nH]c2ccccc2c(O)c1C1=NS(=O)(=O)c2ccccc2N1	102	101	-22	-1
36	CCc1ccccc1NC(=O)CCC(=O)N1CCSc2ccccc21	102	98	0	-11
37	CCCCNC(=O)c1c(N)no[n+]1[O-]	99	102	-4	22
38	Cn1cccc1C(=O)OCc1cc(=O)oc2cc(O)ccc12	104	108	91	-16
39	COc1ccccc1/C=C(/C(=O)OCc1cc(C)on1)c1ccccc1	103	98	7	-18
40	Cc1nn(-c2ccccc2)nc1C(=O)ONC(=O)Cc1ccccc1	98	98	0	7
41	O=C(Nc1nc(SCc2ccc(Cl)cc2)n[nH]1)C1CC(=O)N(C2CCCC2)C1 (configuration not stated)	101	98	4	-13
42	Cc1noc(C)c1COc1ccc2ccccc2c1Br	99	103	12	-3
43	COc1ccc2oc(=O)c(C(=O)N3CCC(C(N)=O)CC3)cc2c1	103	101	90	-3
44	CN(C)Cc1nc2c(c(=O)[nH]1)C(C)(C)Cc1ccccc1-2	101	105	-11	-6
45	CC1(C)CC(=O)CC(=Nc2ccc3[nH]c(=O)[nH]c3c2)C1	102	104	x	-5
46	C=CCC1(NCCc2ccccc2)CCCCC1	104	110	-11	-14
47	Cc1nc2ccccc2nc1C(N)=O	100	99	6	-9
48	Cc1ccc(C)c(N2CCN(S(=O)(=O)c3ccc4c(c3)OCCO4)CC2)c1	101	104	0	-39
49	O=C(O)c1ccccc1C(=O)NC1=NN(c2ccccc2)CC1	101	104	4	-38
50	CCOc1ccc(OCC)c(C(=O)C2CCCCC2)c1	104	106	x	-9

Full records from above:
Cc1ccc(C)c(N2CCN(S(=O)(=O)c3ccc4c(c3)OCCO4)CC2)c1 across the screens: Polio RdRp inh: 101; Polio RdRp inh intensity: 104; Mtb MbtI inh: 0; Mtb MenB inh: -39
COc1ccc2oc(=O)c(C(=O)N3CCC(C(N)=O)CC3)cc2c1 across the screens: Polio RdRp inh: 103; Polio RdRp inh intensity: 101; Mtb MbtI inh: 90; Mtb MenB inh: -3

More results
item	compound	Polio RdRp inh	Polio RdRp inh intensity	Mtb MbtI inh	Mtb MenB inh
51	Cc1ccc(N2C(=O)N(CC(=O)N3CCC(C)CC3)C3CS(=O)(=O)CC32)cc1Cl (configuration not stated)	101	101	7	-22
52	N#CC(C#N)=C1CCC(=C(C#N)C#N)CC1	110	171	-58	-21
53	CC(NC(=O)CSc1nnc(-c2ccco2)n1-c1ccccc1)C1CC2CCC1C2 (configuration not stated)	102	104	10	-22
54	CCOC(=O)N1CCN(C(=S)NC2CCCC2)CC1	106	103	-54	-19
55	CC1(C)C/C(=N\O)c2c(nc(C(F)(F)F)c3[nH]c4ccccc4c23)C1	102	99	109	-33
56	O=C(Cn1cccc1)Nc1ccccc1Cl	98	93	9	-23
57	Cc1[nH]nc2c1C(c1ccc(C(C)C)cc1)N(C)C2=O (configuration not stated)	101	100	-15	-30
58	CC(C)(CN)C(O)C(=O)O (configuration not stated)	101	101	-3	-1
59	O=C(O)/C=C\C(=O)NCC1(c2ccccc2)CCOCC1	100	99	-7	-23
60	Cc1cc(=O)oc2c1ccc1oc(N=Nc3ccccc3)c(O)c12	103	100	18	-1
61	O=C(NCCCN1CCCCC1)c1cc(Sc2ccc(F)cc2)nc2ccccc12	104	110	-9	-7
62	COC(=O)C(C)C1Sc2ccccc2NC1=O (configuration not stated)	102	104	8	-2
63	O=C(COC(=O)CCc1c[nH]c(=O)[nH]1)Nc1ncccn1	100	105	0	-25
64	CC(C)N1CCC(=O)N(c2ccc(C(C)(C)C)cc2)C1=O	102	103	4	-24
65	CC(=O)NC(=O)c1cc2ccccc2oc1=Nc1ccc(C(F)(F)F)cc1	104	105	-4	-13
66	CN(C)c1ccc(NC(=O)c2ccccn2)cc1	99	96	11	-32
67	CCSc1nnc(-c2cccc(S(=O)(=O)N3CCOCC3)c2)n1C1CCCC1	105	107	-9	-26
68	Cc1cc(C)cc(OCC(O)CN2CCN(C(=O)c3ccco3)CC2)c1 (configuration not stated)	99	109	-8	-6
69	COC(=O)C1=C(Nc2ccccc2NC(=O)COCC(=O)O)CSC1	101	103	-4	-9
70	Cn1nc(-c2ccc(Cl)cc2)cc1NC(=O)Cn1nnc(-c2ccccc2)n1	98	105	3	4
71	CC1(C)C(C(=O)ON2C(=O)CCC2=O)C1(C)C	101	98	-9	-72
72	CC1CN(C(=S)SCC(=O)c2ccccc2)CC(C)O1 (configuration not stated)	102	106	-11	-16
73	O=C(CSc1ncc(-c2ccc(F)cc2)n1Cc1ccco1)OC1CCCCC1	102	102	10	-74
74	CCCCn1c(Cc2ccccc2)nc2ccccc21	100	101	-4	-35
75	Nc1ccccc1C(=O)NCCN1CCNC1=O	110	121	110	3
76	O=C1CSc2ccc(C(F)(F)F)cc2N1	101	98	-2	x
77	O=C(Cn1cnc2c(cnn2-c2ccccc2)c1=O)NCCc1ccccc1	101	101	-1	-8
78	CCOC(=O)c1c(CCc2ccc3c(c2)OCO3)csc1N	101	104	15	-4
79	CC(C)(Oc1ccc(Cl)cc1)C(=O)N1CCN(c2ccc(C(F)(F)F)cn2)CC1	100	104	-10	-1
80	COCn1c(COc2ccc3ccccc3c2)nc2ccccc21	101	103	-14	-12
81	CC(C)N(C(=O)NC(=O)Nc1ccc(C=C(C#N)C#N)cc1)S(C)(=O)=O	88*	95*	13	-143
82	COc1ccc(C)cc1NC(=O)CCC(=O)c1ccc2c(c1)OCCCO2	140	164	-14	-31
83	CCOC(=O)c1cccc(NC(=O)N2CCOCC2)c1	102	100	-2	19
84	O=C(CSc1c2c(nc3ccccc13)CCCC2)NCCC1=CCCCC1	101	100	1	-16
85	COc1ccc(NC(=S)NNc2ccc(C(=O)O)cc2)cc1	105	105	12	-23
86	O=C(CSc1nc2c(oc3ccccc32)c(=O)n1CC1CCCO1)Nc1ccccc1 (configuration not stated)	100	105	-11	-11
87	CCOC(=O)c1ccoc1COC(=O)c1ccc(C)c(C)c1	103	101	-7	-15
88	O=C1CCC(C(=O)NCCCn2ccc3ccccc32)=NN1	102	113	2	-18
89	C=CCNC(=O)c1cnn2c(C(F)F)cc(-c3ccccc3)nc12	100	100	-6	9
90	CCCOc1ccc(C=Nc2ccc(N3CCN(CC)CC3)cc2)c(O)c1	115	110	15	0

Shown with one line to a screen: part of the list above.
[73] O=C(CSc1ncc(-c2ccc(F)cc2)n1Cc1ccco1)OC1CCCCC1
[74] CCCCn1c(Cc2ccccc2)nc2ccccc21
[75] Nc1ccccc1C(=O)NCCN1CCNC1=O
[76] O=C1CSc2ccc(C(F)(F)F)cc2N1
[77] O=C(Cn1cnc2c(cnn2-c2ccccc2)c1=O)NCCc1ccccc1
[78] CCOC(=O)c1c(CCc2ccc3c(c2)OCO3)csc1N
[79] CC(C)(Oc1ccc(Cl)cc1)C(=O)N1CCN(c2ccc(C(F)(F)F)cn2)CC1
[80] COCn1c(COc2ccc3ccccc3c2)nc2ccccc21
[81] CC(C)N(C(=O)NC(=O)Nc1ccc(C=C(C#N)C#N)cc1)S(C)(=O)=O
[82] COc1ccc(C)cc1NC(=O)CCC(=O)c1ccc2c(c1)OCCCO2

Screen / compound no.	73	74	75	76	77	78	79	80	81	82
Polio RdRp inh	102	100	110	101	101	101	100	101	88*	140
Polio RdRp inh intensity	102	101	121	98	101	104	104	103	95*	164
Mtb MbtI inh	10	-4	110	-2	-1	15	-10	-14	13	-14
Mtb MenB inh	-74	-35	3	x	-8	-4	-1	-12	-143	-31

[83] CCOC(=O)c1cccc(NC(=O)N2CCOCC2)c1
[84] O=C(CSc1c2c(nc3ccccc13)CCCC2)NCCC1=CCCCC1
[85] COc1ccc(NC(=S)NNc2ccc(C(=O)O)cc2)cc1
[86] O=C(CSc1nc2c(oc3ccccc32)c(=O)n1CC1CCCO1)Nc1ccccc1 (configuration not stated)
[87] CCOC(=O)c1ccoc1COC(=O)c1ccc(C)c(C)c1
[88] O=C1CCC(C(=O)NCCCn2ccc3ccccc32)=NN1
[89] C=CCNC(=O)c1cnn2c(C(F)F)cc(-c3ccccc3)nc12
[90] CCCOc1ccc(C=Nc2ccc(N3CCN(CC)CC3)cc2)c(O)c1

Screen / compound no.	83	84	85	86	87	88	89	90
Polio RdRp inh	102	101	105	100	103	102	100	115
Polio RdRp inh intensity	100	100	105	105	101	113	100	110
Mtb MbtI inh	-2	1	12	-11	-7	2	-6	15
Mtb MenB inh	19	-16	-23	-11	-15	-18	9	0

(cont.)
item	compound	Polio RdRp inh	Polio RdRp inh intensity	Mtb MbtI inh	Mtb MenB inh
91	CC(NC(=O)CSc1n[nH]c(=O)[nH]c1=O)C1CC2CCC1C2 (configuration not stated)	99	110	-18	-14
92	CCOC(=O)N1CCN(Cn2c(=S)sc3ccccc32)CC1	107	112	89*	-37
93	O=C(COC(=O)c1cc(-c2ccco2)nc2ccccc12)Nc1ccc(N2CCOCC2)cc1	98	103	-37	-20
94	COc1ccccc1N1CCN(C2CCN(Cc3cc(OC)c(OC)c(OC)c3)CC2)CC1	101	97	2	5
